Bioassay records from PubChem BioAssay.
TRPML1 ag: activates the human TRPML1 channel. activation, % (no concentration beside the values). Q9GZU1. TRPML1-expressing cells, Ca2+ dye fluorescence, FDSS; host cell line not named in the record; reference of the full effect not given here. hit rate 0.12% among 410,000; in the data active = activation above about 50%; inconclusive = about 30% to 50%; inactive = below about 30%; also: 0% is about no effect; the text of the record puts the active cut at 80%
Target sequence (Q9GZU1 whole entry, looked up): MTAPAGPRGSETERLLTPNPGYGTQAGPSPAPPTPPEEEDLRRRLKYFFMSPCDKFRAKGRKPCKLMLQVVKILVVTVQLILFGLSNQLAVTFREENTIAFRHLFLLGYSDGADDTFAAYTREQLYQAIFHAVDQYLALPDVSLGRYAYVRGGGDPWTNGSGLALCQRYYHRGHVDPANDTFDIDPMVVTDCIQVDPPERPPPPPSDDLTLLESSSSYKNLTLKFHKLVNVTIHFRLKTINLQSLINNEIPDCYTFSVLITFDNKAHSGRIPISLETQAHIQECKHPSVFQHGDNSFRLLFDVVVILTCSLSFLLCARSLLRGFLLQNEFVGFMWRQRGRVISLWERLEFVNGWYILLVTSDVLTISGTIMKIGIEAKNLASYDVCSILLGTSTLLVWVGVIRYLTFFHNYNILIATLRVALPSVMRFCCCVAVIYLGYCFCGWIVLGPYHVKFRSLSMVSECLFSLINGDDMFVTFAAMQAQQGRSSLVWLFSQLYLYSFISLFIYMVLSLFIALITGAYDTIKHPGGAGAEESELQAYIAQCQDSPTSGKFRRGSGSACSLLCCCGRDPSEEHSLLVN
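Cells: TRPML1-DL, 1X Tet inducer, ~16 h at 37 degrees C/5% CO2. Dye: ABD Ca8 no-wash + quencher, 45-90 min RT. Read: 10 s baseline, compound add, 110 s agonist phase; 54-4 EC80 (4uM final), 110 s antagonist phase.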
gsp agonist: agonists of gsp mutant (McCune-Albright syndrome); gsp mutant cells, cAMP HTRF, 30 min; control for the full effect not named in the record; Potency, µM (titrated, usually from 76.9 µM), without a hit: top-dose activation (cAMP increase), actives largely listed as activators; hit rate 0.13% among 340,000; AID 624287; active = well fitted activation curve with a large enough effect; inconclusive = small, poorly fitted or top-dose-only effect, or another doubt; inactive = no such curve, though single readings can be large or run the other way; cell line not stated here;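 also: phosphodiesterase inhibitor Ro 20-1724 added with compounds to block cAMP breakdown; potency is read from the fitted curve at half-maximal effect; nearly all actives have a fitted effect of over 60% in size; about a fifth of the inactives were tested at one dose only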
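Cells in DMEM/10% FBS with G418 were pretreated with compounds in DMSO plus […] (300 uM stock) for 30 min at 37C. cAMP was measured by HTRF (cAMP-d2 plus anti-cAMP antibody-K) after 30 min at room temperature.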
gsp antag: gsp mutant antagonism; AID 624288; gsp-mutant cells, cAMP HTRF, 30 min; control for the full effect not named in the record; Potency, µM (titrated, usually from 76.9 µM), for inactives: top-dose activity change, negative = inhibition, hits mostly inhibitors; hit rate 0.4% among 340,000; active = falling curve of any shape with a large fitted effect; inconclusive = falling curve, mostly with a smaller effect; inactive = flat or rising curve; cell line not stated here;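 also: intracellular cAMP measured with PDE inhibitor Ro 20-1724 present during compound exposure; potency is read from the fitted curve at half-maximal effect; % is scaled to controls: 0 for no effect and ±100 for the full control effect; nearly all actives have a fitted effect of over 65% in size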
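HTRF cAMP measurement after 30 min RT detection following 30 min, 37C compound treatment alongside […] (added as 300 uM solution) in G418-selected cells seeded at 2000/well and grown 16–24 h.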
ClpP mod: qHTS Assay for Activators of ClpP | ATP-dependent Clp protease proteolytic subunit (Bacillus subtilis (strain 168)), P80244 | purified B. subtilis ClpP, FRET peptide cleavage, 20 min | Potency, µM (highest dose often 57.5 µM), without a hit: top-dose activity change, negative = active | AID 651965, 2013 | hit rate 1.9% among 340,000; active = well fitted falling curve with a large enough effect; inconclusive = small, poorly fitted or top-dose-only effect; inactive = no such curve, though single readings can be large or run the other way; also: potency is read from the fitted curve at half-maximal effect; the source files actives as falling curves though it sought activators and does not explain the sign; nearly all actives have a fitted effect of over 65% in size; many hits overshoot -100%
Target sequence (P80244 whole entry, looked up): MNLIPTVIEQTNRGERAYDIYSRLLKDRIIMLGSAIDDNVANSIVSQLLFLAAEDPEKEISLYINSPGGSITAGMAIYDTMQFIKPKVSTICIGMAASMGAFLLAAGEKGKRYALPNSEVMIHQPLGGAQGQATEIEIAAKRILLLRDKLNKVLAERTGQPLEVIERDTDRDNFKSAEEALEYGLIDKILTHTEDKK
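ClpP 10 microg/mL final, pH 8 Tris/KCl buffer with BSA, glycerol, Tween-20; compound pinned in; FRET-FV substrate; RT 20 min; Ex320/Em430; ΔFRET vs ADEP 5.8 microM, DMSO, no enzyme.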
TRPML1 inh: inhibitors of human TRPML1 channel | Q9GZU1 | TRPML1-inducible cells, Ca2+ dye fluorescence, FDSS; hits give low values; inhibition of EC80 agonist-evoked calcium signal | activity change, negative = inhibition, % (no concentration beside the values) | hit rate 0.02% among 390,000; in the data active means activity change below about -50%; inconclusive means about -30% to -50%; inactive means above about -30%;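 also: stimulus is agonist 54-4 at its EC80 concentration; % is scaled to controls: 0 for no effect and ±100 for the full control effect; compound concentration not given in the record; the text of the record puts the active cut at -80%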
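Calcium fluorescence in TRPML1-DL cells induced overnight with Tet: a 110 s read after compound pin addition, then a 110 s antagonist read after challenge with 54-4 at 4 uM final (EC80).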
Menin MLL FP FL: menin-MLL binding inhibition, fluorescein peptide; Fluorescence polarization, fluorescein-MLL peptide displacement from menin; FP activity change, % at 61.4 µM; 290,000 tested, under 10 active; AID 1766; inconclusive = falling polarisation curve, or a change in total fluorescence; inactive = total fluorescence flat and polarisation flat or rising; no compound was filed as active; the % refers to the polarisation; negative = inhibition;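 also: % of control where 0% means no effect; inhibitors lower the polarisation; unlabelled MLL peptide was the positive control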
* = called active by the depositor; ? = inconclusive; nt = no result given; [ ] = dose if it differs, or a comment.

Values in the order: ClpP mod	Menin MLL FP FL	TRPML1 inh	TRPML1 ag	gsp agonist	gsp antag
COc1ccccc1NC(=O)CSc1ccc2nnc(CCNC(=O)c3ccccc3)n2n1
    -3.8%	nt	0	0.5	-2%[15.4 µM]	1%
CC1CCN(CCOc2cc(Cl)ccc2Cl)CC1
    0.1%	5.5	-1	-0.1	-12%	6%
Cc1ccc(N2CC(C(=O)OCC(=O)c3c(N)n(CC(C)C)c(=O)n(C)c3=O)CC2=O)cc1 (stereo unspecified)
    -5.4%	nt	-6	0.6	-4%	-1%
CCN1CCN(Cc2c(O)ccc3c(C)c(-c4ccccc4)c(=O)oc23)CC1
    5.3%	nt	-3	-0.7	nt	nt
CCOC(=O)C1C(=O)N(O)CC1c1cccc(Oc2ccccc2)c1 (stereo unspecified)
    -3.2%	-3.0	6	0.9	22%	1%
CN1CCN(c2ccc(Cl)cc2NC(=O)CCN2C(=O)c3ccccc3C2=O)CC1
    -0.5%	-0.2	-6	3.3	-31%[inhibitor]	4%
COc1ccc(OC)c(S(=O)(=O)N2CCCCCC2)c1
    -3.3%	-3.2	2	0.4	-30%	4%
COc1ccc(C)cc1NC(=O)CSc1nc(=O)n(CCCN2CCOCC2)c2c1CCCC2
    1.2%	nt	-1	0.8	-1%	-1%
O=C(COC(=O)c1cc(=O)[nH]c2ccccc12)Nc1nc(-c2ccccc2)cs1
    14%	0.5	21	0.1	?	-14%
CC(=O)NC(=S)Nc1ccccc1N1CCCCC1
    nt	0.4	-7	0.6	-2%[15.4 µM]	3%
Cc1cc(C)cc(N2CC(C(=O)O)CC2=O)c1 (stereo unspecified)
    -1.5%	3.7	17	-0.6	-3%	5%[15.4 µM]
CC1CCN(CCCNC(=O)C2CCN(S(=O)(=O)N3CCC4(CC3)OCCO4)CC2)CC1
    -0.2%	-0.2	?	-0.1	27%	23%
CN(C)C(=O)CCc1ccc2c3c([nH]c2c1)[C@]1(C)[C@@H](C(=O)N2CCCCC2)C[C@H](CC(=O)NC(C)(C)C)C(=O)N1CC3
    -6.3%	nt	15	0.5	nt	-7%
CC1CCN(C(=O)c2ccc(-n3cnnn3)cc2)CC1
    -0.9%	0.0	-16	0.1	-13%	9%
COCCCn1c(=O)/c(=C\c2ccc(OC(F)F)c(OC)c2)s/c1=C(/C#N)C(N)=O
    4.0%	?	30	-0.8	21%	-5%
Cc1ccc(S(=O)(=O)N2CCOCC2)cc1NC(=O)COc1cccc(-n2cnnn2)c1
    0.7%	nt	14	-0.2	22%	0%
COC(=O)c1ccccc1NC(=S)NC(=O)c1ccc(C)cc1
    -21%	0.6	-3	-0.3	-19%	-2%
Cc1ccc([C@H]2C[C@@H](O)[C@H](n3cc(C4CC4)nn3)CN2C(=O)c2cccs2)cc1
    1.2%	nt	2	-0.7	-74%[inhibitor]	nt
COc1ccc(NC(=S)N(CCCN2CCOCC2)C(C)c2cc3cccc(OC)c3o2)cc1 (stereo unspecified)
    nt	4.9	11	0.2	1%	-11%
O=C(CSc1ccc2nnc(-c3ccccc3)n2n1)NCc1ccco1
    -14%	-1.7	-18	0.9	?	14%
Cc1ccc(N2CCN(S(=O)(=O)c3ccc4[nH]c5c(c4c3)CCCCC5)CC2)c(C)c1
    ?	nt	-13	0.3	nt	nt
O=C(CC1Sc2ccccc2NC1=O)NNc1ccc(Cl)cc1Cl (stereo unspecified)
    nt	nt	18	-0.2	-17%	-1%
COc1ccc(OCC(=O)Nc2ccc(C)c(S(=O)(=O)N(C)C)c2)cc1
    nt	0.6	11	0.1	14%	-5%
OC[C@@H]1CN(Cc2ccco2)C[C@H](n2cnc3c(N4CCN(c5ccccc5)CC4)ncnc32)O1
    -0.5%	nt	77	2.0	nt	nt
O=C(O)CCC(NS(=O)(=O)c1ccc(-c2ccccc2)cc1)C(=O)O (stereo unspecified)
    0.5%	-4.8	-11	0.3	-30%	7%
Cc1cn([C@H]2C[C@H](O)[C@@H](/C=C/C(=O)NCc3cccc4ccccc34)O2)c(=O)[nH]c1=O
    1.1%	nt	3	-0.4	nt	nt
COCC(=O)N(Cc1cc2cc(C)ccc2[nH]c1=O)c1ccc(C)c(C)c1
    -0.1%	1.0	-5	0.9	-23%[15.4 µM]	-13%
O=[N+]([O-])c1cccc(S(=O)(=O)c2ccc(N3CCCCC3)c([N+](=O)[O-])c2)c1
    -1.6%	-0.6	-14	0.3	9%[15.4 µM]	-11%
C#CCSc1nnc(-c2c[nH]c3ccccc23)n1C
    0.7%	-2.6	6	0.7	?	5%
CC(=O)Nc1ccc(NC(=O)C(C)OC(=O)c2ccc(S(=O)(=O)N3CCCCC3)cc2)cc1 (stereo unspecified)
    nt	nt	6	0.1	43%	-2%

Looked up above.
gsp antag with CC(=O)Nc1ccc(NC(=O)C(C)OC(=O)c2ccc(S(=O)(=O)N3CCCCC3)cc2)cc1 (stereo unspecified) = -2%
TRPML1 ag with CCOC(=O)C1C(=O)N(O)CC1c1cccc(Oc2ccccc2)c1 (stereo unspecified) = 0.9
gsp antag with CC1CCN(CCCNC(=O)C2CCN(S(=O)(=O)N3CCC4(CC3)OCCO4)CC2)CC1 = 23%
TRPML1 inh with COc1ccc(C)cc1NC(=O)CSc1nc(=O)n(CCCN2CCOCC2)c2c1CCCC2 = -1
Menin MLL FP FL with O=C(COC(=O)c1cc(=O)[nH]c2ccccc12)Nc1nc(-c2ccccc2)cs1 = 0.5

The main list resumes; the 2 compounds before the break are reprinted first.
Values in the order: ClpP mod	Menin MLL FP FL	TRPML1 inh	TRPML1 ag	gsp agonist	gsp antag
C#CCSc1nnc(-c2c[nH]c3ccccc23)n1C
    0.7%	-2.6	6	0.7	?	5%
CC(=O)Nc1ccc(NC(=O)C(C)OC(=O)c2ccc(S(=O)(=O)N3CCCCC3)cc2)cc1 (stereo unspecified)
    nt	nt	6	0.1	43%	-2%
COc1ccc(OC)c2sc(N(Cc3cccnc3)C(=O)c3ccc(C(C)=O)cc3)nc12
    -2.9%	nt	13	3.0	nt	nt
Cn1c(=O)n(C)c2cc(NC(=O)COc3ccc(F)cc3)ccc21
    -0.9%	-1.8	nt	nt	1%	-9%
CC1=C(C)/C(=N/OC(=O)c2cccc([N+](=O)[O-])c2)C=CC1=O
    0.1%	-1.0	-11	-0.2	-67%[inhibitor]	11%
CN(C(=O)c1ccc(C#N)cc1)c1nnc(-c2ccccn2)s1
    130%	-1.1	9	-0.8	17%	35%[activator]
CC1=NN(S(=O)(=O)c2ccc(C)cc2)C(=O)c2ccccc2O1
    -2.9%	-6.9	-18	-0.7	14%	3%
CCOc1ccccc1OCC(=O)Nc1cc2c(cc1C(=O)O)OCCCO2
    -12%	-2.0	7	2.6	?	-9%
CCCCNC(=O)C1CCC(CNS(=O)(=O)c2c(C)cc(C)cc2C)CC1 (stereo unspecified)
    0.9%	-3.4	-12	1.5	-17%	-1%
Cc1ccc(Sc2nnc(Cc3ccccc3)c3ccccc23)cc1
    -4.0%	1.0	73	2.3	-43%	-17%
Cc1cc(NC(=O)CCC(=O)N(CC(=O)NC2CCCC2)c2cccc(F)c2)no1
    nt	-4.4	1	0.4	3%	4%
COCC#Cc1cnc2c(c1)C(=O)N([C@H](C)CO)C[C@H](C)[C@@H](CN(C)S(=O)(=O)c1ccccc1)O2
    0.3%	nt	-3	-0.3	?	nt
C/C(=N\NC(=O)c1cccc([N+](=O)[O-])c1)c1ccco1
    nt	1.4	-3	0.8	-11%[15.4 µM]	6%
O=C(Nc1cccnc1)c1ccc(CN2CCc3ccccc3C2)cc1
    -7.9%	2.6	1	0.3	-36%[inhibitor]	3%
COc1ccc2c(c1)CCc1cc(C(=O)N3CCN(c4ccc(N5CCOCC5)nn4)CC3)sc1-2
    4.2%	3.2	-7	-0.3	-26%	?
Cc1ccc(-n2c(=O)[nH]cc(C(=O)Nc3ccc4c(c3)OCCO4)c2=O)cc1C
    -0.6%	2.9	6	-0.6	-10%	-13%
O=C(OCC(=O)C12CC3CC(CC(C3)C1)C2)c1cccnc1
    nt	-1.3	0	-0.7	-11%[15.4 µM]	5%
COC(=O)COc1ccc(S(=O)(=O)NCCC2=CCCCC2)cc1Cl
    0.2%	1.4	6	-0.2	4%	-8%
Cc1cc(C)cc(NS(=O)(=O)c2ccc(-c3cnc(C4CC4)o3)cc2)c1
    1.9%	nt	-1	-0.2	1%	12%
O=C1C=C(NCc2ccc(Cl)c(Cl)c2)CC1
    0.5%	0.5	-5	3.6	17%	-14%
O=S(=O)(CCc1nnc(-c2ccccc2)o1)c1ccc2ccccc2c1
    -1.8%	0.0	2	1.2	-4%	2%
COc1ccc(N(CCOc2ccccc2)S(=O)(=O)c2ccccc2)cc1
    -2.0%	nt	12	0.3	-5%	-7%
CC(Cc1ccccc1)NC(=O)CC(c1ccccc1)c1ccccc1O (stereo unspecified)
    -1.5%	-4.4	14	1.4	12%[15.4 µM]	-22%
Cc1ccc(C(=O)N/N=C/c2c[nH]c3ccccc23)o1
    nt	-5.7	-4	-0.7	-8%	-24%
COc1cc2ccc(C(C)=O)c(O)c2cc1OC
    3.5%	nt	9	-0.8	15%	nt
Cc1ccc(N(Cc2cc(=O)[nH]c3ccccc23)C(=O)c2ccco2)cc1
    -13%	3.3	-2	1.3	20%	-3%
CNCC(O)COc1ccccc1 (stereo unspecified)
    0.8%	3.0	28	-0.4	-2%	15%
COc1c(C)cc(C(=O)C2CCCN(C(=O)c3csc(C)n3)C2)cc1C (stereo unspecified)
    -0.8%	1.4	-6	-0.5	13%	-4%
Clc1cccc(CNc2cc(-c3ccccc3)nc3nncn23)c1
    ?	nt	37	0.1	nt	nt
CC(C)(C)NC(=O)CN(c1cccc([N+](=O)[O-])c1)S(=O)(=O)c1ccccc1
    nt	-4.4	51	1.1	13%	7%
Cc1ccc2c(c1)C(c1ccc(F)cc1)N(C(=O)c1cc3ccccc3oc1=O)CC(=O)N2 (stereo unspecified)
    -5.9%	11	-8	-0.4	-3%	-12%
C[C@H](NC(=O)C1CCN(S(=O)(=O)c2ccccc2)CC1)C(=O)NCc1ccc(F)cc1
    -1.8%	nt	13	0.3	2%	1%
O=c1c2ccccc2nc(CSc2ncnc3nc[nH]c23)n1-c1cccc(C(F)(F)F)c1
    -4.8%	-1.9	1	-0.4	?	1%
FC(F)(F)c1ccccc1CN1CCC(Cc2ccccc2)CC1
    nt	0.5	-5	-0.7	3%	5%
COc1cc(Cl)c(S(=O)(=O)N2CCOCC2)cc1Cl
    1.2%	1.5	0	-0.8	-21%	5%
